# Assay outcomes from PubChem BioAssay.
# S aureus helic = inhibitors of S. aureus replicative helicase, primary screen, biochemical, fluorescence unwinding readout | purified S. aureus helicase, fluorescence unwinding assay; about half of the hits fall short of the stated cut | inhibition, %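 (tested at about 80 µM)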 | 120,000 tested, 0.05% active;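 active = both duplicates at 50% or more, or one of them with a favoured structure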;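 note: 0% = mean of negative control wells and 100% = mean of positive control wells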
# MgrA DNA FP = S. aureus MgrA activity modulators, primary screen, biochemical, S. aureus Newman, fluorescence polarization. MgrA-DNA binding. inhibition, %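 (about 10 µg/mL by stock and volumes)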. 84,000 tested, 0.13% active. AID 602314, 2012;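 active = above 50% in either of two replicates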;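 note: 0% = protein plus DNA without compound and 100% = DNA alone without protein; higher means less MgrA bound to DNA so lower polarization; one replicate is shown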
# Starred values were filed as active, the others as inactive; / = no result given. These rows are one share of the data; count on the stated rates, not on these rows.
SMILES,S aureus helic,MgrA DNA FP
CC(=O)N/N=c1\oc2ccccc2cc1C(=O)Nc1ccccc1,21,/
Cc1ccc(F)cc1NC(=O)Nc1cc(C(C)(C)C)nn1C,19,/
O=C(CSc1ccc(Cl)cc1)NCCN1CCOCC1,-3,0.1
N#CC1=C(SCC(=O)Nc2ccc(F)cc2)NC(=O)CC1c1ccc(F)cc1 (stereo not drawn),18,/
CCC1(c2cccc(OC)c2)CCCC/C1=N\O (stereo not drawn),/,-2.0
COc1ccc2c(c1)c1c(c(=O)n(Cc3ccccc3)c(=O)n1CC(N)=O)n2C,23,/
O=C1c2ccccc2C(Nc2ccc(S(=O)(=O)N3CCCCC3)cc2)N1c1ccccn1 (stereo not drawn),5,1.9
O=c1c(Cl)c(N2CCOCC2)cnn1-c1cnc2ccccc2n1,-12,/
CO[C@H]1C[C@H](O[C@H]2[C@H](C)[C@@H](OC3O[C@H](C)C[C@H](N(C)C)[C@H]3OC(C)=O)[C@@H](C)C[C@]3(CO3)C(=O)[C@H](C)[C@@H](OC(C)=O)[C@@H](C)[C@@H](C)OC(=O)[C@@H]2C)O[C@@H](C)[C@@H]1OC(C)=O (stereo partly drawn),/,-0.7
O=C1NC(=Nc2ccccc2)SC1Cc1cccc(Cl)c1Cl (stereo not drawn),/,0.7
O=C(Nc1nnc(C2CC2)s1)c1ccc2c(c1)OCO2,/,-1.5
Cc1nn(CC(=O)NCC2CCCO2)c(=O)c2ccccc12 (stereo not drawn),4,/
CN(C)S(=O)(=O)c1ccc(/C(O)=C(\C#N)c2nc3ccccc3s2)cc1,-38,/
COc1ccc2c(c1)c1c(c(=O)n(-c3ccccc3)c(=O)n1CC(=O)N1CCCC1)n2C,6,/
c1ccc(Cn2c(-c3cccs3)nc3ccccc32)cc1,-33,/
CCC(C)SCC(=O)N1CCC(C)CC1 (stereo not drawn),-4,-0.9
Brc1c(CSc2nc3ccccc3o2)nc2ccccn12,6,/
COc1cccc(C2=Nc3cccc4cccc(c34)N2)c1,-8,1.2
C1=CC=CC(C2C=CC=CC=C2)C=C1,/,2.0
CCOc1cc(C#N)ccc1OCC(=O)NC1CCCCCC1,5,-1.5
O=C(NCCOc1ccccc1F)C1CC(=O)N(Cc2ccccc2)C1 (stereo not drawn),19,/
O=C(Cn1c(=O)c2c(ncn2C2CCCC2)n(Cc2ccccc2)c1=O)NCC1CCCO1 (stereo not drawn),2,/
Fc1ccc(N2COc3cc4c(cc3C2)OCO4)cc1Cl,8,3.5
O=C(CN1C(=O)C2C3C=CC(C3)C2C1=O)Nc1cccc(F)c1 (stereo not drawn),6,-1.5
O=C(c1ccccc1)N1CCC(n2cccc2)CC1,/,0.0
Nc1nc2c3ccccc3nc(Cc3ccccc3)n2n1,11,/
CC(C)NC(=O)C1CC(c2ccc(Cl)cc2)=NO1 (stereo not drawn),0,-1.9
CSc1nnc(-c2ccccc2)n1/N=C/c1cc(O)ccc1Cl,-3,2.2
COc1ccc(CC(=O)NN)cc1OC,/,-1.7
O=C(Cn1c(=O)oc2ccccc21)c1ccc(Cl)cc1,21,/
ONC(=NCCc1ccncc1)C(c1ccccc1)c1ccc(F)cc1 (stereo not drawn),/,-2.0
CC1=C(OC(=O)/C=C/c2ccccc2)C(=O)CC1,/,-1.4
COc1cccc(CNc2cc(C)c3cccc(OC)c3n2)c1OC,-3,3.5
CCOC(=O)C1CCN(CC(=O)Nc2ccc(SC(F)F)cc2)CC1,-14,/
COc1ccc2c(Sc3ccccc3)c(C(=O)NC3CCCC3)[nH]c2c1,8,0.4
CCN(C(=O)Cc1cccs1)c1ccccc1,6,4.0
O=C(Cn1nc(-c2ccc(Cl)cc2)c2ccccc2c1=O)Nc1cccc2ccccc12,3,-1.4
CC1CCCC(C)N1C(=O)C1=COCCO1 (stereo not drawn),23,/
CCn1c(-c2ccc(Cl)cc2)cs/c1=N\N=C/c1ccc(O)cc1,0,/
CC(=O)NCc1ccc(C(=O)COC(=O)C(c2ccccc2)c2ccccc2)o1,-11,/
COC(=O)c1ccc(COc2ccccc2Br)cc1,0,-1.2
CS(=O)(=O)Cc1ccc(C(=O)Nc2ccnn2C2CCCC2)cc1,-5,/
CCCCC(=O)Nc1ccc(S(=O)(=O)Nc2nc(C)cc(C)n2)cc1,/,-0.6
CC(C(O)c1ccccc1)N(C)S(=O)(=O)c1ccc2ccccc2c1 (stereo not drawn),-15,-2.0
CCOc1ccccc1N1C(=O)C2C(c3ccccc3)C=CC(c3ccccc3)C2C1=O (stereo not drawn),11,0.1
O=C(Cn1ccc2ccccc2c1=O)NCCC(=O)NC1CC1,-5,0.7
COC(=O)c1c(N2C(=O)C=CC2=O)sc2c1CCC(C(C)(C)C)C2 (stereo not drawn),-16,/
Cc1ccc(CC(C#N)Sc2nnc(-c3cccs3)n2C2CC2)cc1 (stereo not drawn),16,/
CCN(C(=O)CSc1nnc(-c2ccco2)n1N)c1cccc2ccccc12,9,/
CC1(C)CC(n2c(NCCO)nc3c(c2=O)C2(CCCCC2)Cc2ccccc2-3)CCO1 (stereo not drawn),3,-6.2
# Additional results follow:
SMILES,S aureus helic,MgrA DNA FP
Cn1cccc1/C=N/NC(=O)c1ccccn1,11,1.7
O=c1oc(-c2ccc([N+](=O)[O-])o2)nc2ccccc12,/,0.3
O=c1[nH][nH]c2cccc(F)c12,-39,/
N/C(CC(=O)Nc1ccc(N2CCOCC2)cc1)=N\O,-2,/
C=CCNS(=O)(=O)Cc1ccccc1Cl,13,4.2
S=C(NC1CC2C=CC1C2)N1CCN(C(=S)NC2CC3C=CC2C3)CC1 (stereo not drawn),/,-2.4
Cc1ccc(C2N(C)c3ccccc3-c3nc4ccccc4n32)o1 (stereo not drawn),3,/
O=C(c1ccc(I)cc1)N1CCN(c2ccc(O)cc2)CC1,21,/
CCN(c1ccccc1)c1ncnc2c1cnn2-c1ccc(C)cc1,9,/
CC(=O)N1CCN(C(=S)c2ccc(-c3ccc(C)cc3)o2)CC1,-6,3.2

# 19 structures already listed, arranged by length of the SMILES, low to high:
SMILES,S aureus helic,MgrA DNA FP
O=c1[nH][nH]c2cccc(F)c12,-39,/
C=CCNS(=O)(=O)Cc1ccccc1Cl,13,4.2
CC1CCCC(C)N1C(=O)C1=COCCO1 (stereo not drawn),23,/
Cn1cccc1/C=N/NC(=O)c1ccccn1,11,1.7
COC(=O)c1ccc(COc2ccccc2Br)cc1,0,-1.2
N/C(CC(=O)Nc1ccc(N2CCOCC2)cc1)=N\O,-2,/
O=C(Cn1ccc2ccccc2c1=O)NCCC(=O)NC1CC1,-5,0.7
O=C(c1ccc(I)cc1)N1CCN(c2ccc(O)cc2)CC1,21,/
CCN(c1ccccc1)c1ncnc2c1cnn2-c1ccc(C)cc1,9,/
Cc1ccc(C2N(C)c3ccccc3-c3nc4ccccc4n32)o1 (stereo not drawn),3,/
O=c1oc(-c2ccc([N+](=O)[O-])o2)nc2ccccc12,/,0.3
CS(=O)(=O)Cc1ccc(C(=O)Nc2ccnn2C2CCCC2)cc1,-5,/
CC(=O)N1CCN(C(=S)c2ccc(-c3ccc(C)cc3)o2)CC1,-6,3.2
CCn1c(-c2ccc(Cl)cc2)cs/c1=N\N=C/c1ccc(O)cc1,0,/
CCN(C(=O)CSc1nnc(-c2ccco2)n1N)c1cccc2ccccc12,9,/
COC(=O)c1c(N2C(=O)C=CC2=O)sc2c1CCC(C(C)(C)C)C2 (stereo not drawn),-16,/
CC(=O)NCc1ccc(C(=O)COC(=O)C(c2ccccc2)c2ccccc2)o1,-11,/
CCOc1ccccc1N1C(=O)C2C(c3ccccc3)C=CC(c3ccccc3)C2C1=O (stereo not drawn),11,0.1
CC1(C)CC(n2c(NCCO)nc3c(c2=O)C2(CCCCC2)Cc2ccccc2-3)CCO1 (stereo not drawn),3,-6.2

# 2 entries picked at random from the list so far:
SMILES,S aureus helic,MgrA DNA FP
N#CC1=C(SCC(=O)Nc2ccc(F)cc2)NC(=O)CC1c1ccc(F)cc1 (stereo not drawn),18,/
COc1ccc(CC(=O)NN)cc1OC,/,-1.7

# Other structures follow.
SMILES,S aureus helic,MgrA DNA FP
Cc1nn(C)c2sc(C(=O)NCc3ccc(-c4cccs4)cc3)cc12,/,1.4
CN(C)c1ccc(C(=O)Nc2nc(-c3ccccc3)cs2)cc1,-13,/
CC1=NN(C(=O)Cc2ccccc2)C(C)(C)C1,4,-2.5
CCn1cc(C(=O)N2CCCCC2)c2cc(OC)c(OC)cc2c1=O,10,1.9
Cc1ccc(NC(=O)CN2C(=O)C(C)SC(C)C2=O)cc1 (stereo not drawn),-14,/
CCOC(=O)Cc1cc(=O)[nH]c(/N=C(\N)Nc2cccc(Cl)c2)n1,7,0.5
Nn1c(SCCCSc2nnc(-c3ccco3)n2N)nnc1-c1ccco1,17,/
O=C1CSC2(CCCCC2)N1CCO,-15,2.0
COC(=O)CN(c1ccc(OC)cc1)S(=O)(=O)c1c(C)noc1C,9,/
O=C1CN(CC(=O)Nc2ccc(SC(F)F)cc2)CCN1,8,/
CN1C(=O)/C(=c2/[nH][nH]c(=O)/c2=C\C=C\c2ccccc2)C(=O)c2ccccc21,-4,56*
Cc1ccc(NC(=O)CSC2CC(=O)NC2=O)cc1 (stereo not drawn),-29,/
CCOC(=O)Cn1cc(Cl)c(=O)c(Cl)c1,/,-1.7
COC(=O)C1=C(C)N=c2s/c(=C\c3ccc(OC(C)=O)cc3OC(C)=O)c(=O)n2C1c1ccc(OC)cc1 (stereo not drawn),/,-0.9
Cc1csc(/N=C/N(C)C)c1C#N,3,/
CCOc1ccc(CNC(=O)c2cc(C)[nH]n2)cc1OC,-13,/
Cc1nnc(SCCC(=O)Nc2ccc(Cl)cc2)o1,-7,-2.1
CCN(c1ccccc1)S(=O)(=O)N1CCCC(C(=O)O)C1 (stereo not drawn),0,0.3
CSc1ncccc1C(=O)NCCOc1ccccc1,-4,/
Cc1ccc(S(=O)(=O)N2CCN(Cc3ccccc3)CC2)s1,3,/
O=C(COC(=O)c1ccco1)c1ccc(-n2nncc2-c2ccco2)cc1,2,/
Cc1cnc(C(=O)NCc2ccc(F)cc2)cn1,1,0.7
CCC(c1nnc(SCC(=O)Nc2ccc(C(=O)Nc3ccccc3OC)cc2)o1)N(C)C (stereo not drawn),19,/
CSc1ncc(Cl)c(C(=O)NCc2ccccc2)n1,8,-2.5
COc1ccc(N2C(=O)/C(=C\c3ccco3)N=C2SCC(=O)N2CCc3ccccc32)cc1Cl,3,/
CCCNC(=O)C1CCN(C(=O)c2ccc(C(C)(C)C)cc2)CC1,-6,-0.2
Cc1noc(C)c1S(=O)(=O)NCCN1CCC(Cc2ccccc2)CC1,18,/
COc1ccc(Cl)cc1C(=O)Nc1ccc(-c2nc3cc(Cl)ccc3o2)c(O)c1,/,0.3
CCc1nnc(SCc2cc(=O)n3ccccc3n2)c2cc3occc3n12,-21,/
c1cncc(-c2cccnc2)c1,3,6.2
CCCCC(=O)c1ccc(Br)cc1,/,-2.8
Cc1ccsc1C1C(C#N)=C(N)Oc2nc(-c3ccccc3)[nH]c21 (stereo not drawn),7,1.8
O=c1[nH]c(Nc2ccccc2)cc2ccccc12,-10,/
O=S1(=O)N=C(Oc2ccccc2Cl)c2ccccc21,5,-1.6
CCN(CC)C(=S)SCc1ccc(C(=O)O)cc1,7,-1.1
c1ccc(-c2csc(-c3cccnc3)n2)cc1,/,-2.8
CC(C)C1C(=O)CC(c2ccccc2)NC1c1ccccc1 (stereo not drawn),-13,0.9
COC(=O)c1c(C)nn(-c2ccccc2)c1-n1c(C)ccc1C,12,0.9
CCOC(=O)/C(C#N)=C/c1ccc2c(c1)Sc1ccccc1N2C,-111,/
O=C(O)COc1ccc(C(=O)Cc2ccc3c(c2)OCCCO3)c(O)c1,-13,/
CC(C)(C)c1cc(C(F)(F)F)n2ncnc2n1,8,1.2
COc1ccc(-c2csc3ncn(-n4c(C)ccc4C)c(=O)c23)cc1OC,14,/
O=C(NCCCN1CCc2ccccc2C1)NCc1ccccc1,9,/
CCn1c(Cc2ccccc2)n[nH]c1=S,0,-0.2
CCOc1ccc2c(c1)-c1c(ssc1=S)C(C)(C)N2,23,/
c1ccc(-c2cc(-c3ccccc3)c(N3CCCC3)nn2)cc1,-6,/
Cc1nc2sc(C(c3cccc(F)c3)N3CCOCC3)c(O)n2n1 (stereo not drawn),-13,/
Cn1ncc2c(N/N=C/c3ccc(Cl)cc3)ncnc21,/,0.7
O=C(Nc1ccc(N2CCOCC2)c2nonc12)c1cc2ccccc2oc1=O,-5,0.6
N#CCC(=O)NC1CCCCC1,/,-1.3
# (next part)
SMILES,S aureus helic,MgrA DNA FP
CC1=C(C#N)C(C)C2=C(CC(C)(C)CC2=O)N1 (stereo not drawn),5,3.3
COc1ccc(C)cc1-n1nnnc1SCC(=O)N(CC(C)C)CC(C)C,21,/
c1ccc(-c2cc(N3CCOCC3)cs2)cc1,-1,2.7
O=C(O)c1cnc(-c2ccccc2)nc1-c1ccccc1,/,-0.9
O=C1CCCN1C(=O)CSc1nc2c(Cl)cc(Cl)cc2[nH]1,4,/
COC(=O)Cn1cc(C(=O)c2cccs2)c2ccccc21,6,-2.6
CCOc1ccc(NC(=O)CCNS(=O)(=O)c2ccc(Br)s2)cc1,14,0.7
O=C(NCc1ccc2c(c1)OCO2)c1ccc(N2CCCC2=O)cc1,10,-1.0
CC1=C/C(=N\NC(=O)CCN2CCN(c3ccccc3)CC2)CC1,1,/
COC(=O)c1c[nH]n2c(=O)c(Cc3ccc(F)cc3Cl)c(C)nc12,13,0.1
CC(C1CC1)n1nccc1NC(=O)c1ccc(S(=O)(=O)N(C)C)cc1 (stereo not drawn),8,/
O=C(COC(=O)C1=NNC(=O)CC1)NCC1CCCCC1,11,/
O=c1cnnc(N/N=C/C=C/c2ccccc2)[nH]1,30,/
Nc1nc(SCc2cccc3ccccc23)n[nH]1,16,-1.4
CN(C)CC(C)(C)CNC1CC2CCC1C2 (stereo not drawn),22,-1.8
COC(OC)c1ccc(C#N)c(SCC(=O)c2ccc(C)cc2)n1,4,/
Cc1onc(-c2ccccc2)c1-c1csc(-c2ccno2)n1,-37,/
CNC(=O)CCCc1cn(Cc2ccc(C)cc2)c2ccccc12,3,0.9
